Screening data (PubChem)
YopH PTP inh: blocks Yersinia enterocolitica YopH tyrosine phosphatase; inhibition, %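 (about 10 µM by stock and volumes)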; fluorescence Ex485/Em525; 140,000 tested, 0.16% active;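 active = inhibition of 50% or more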;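 note: controls were vehicle for no effect and minimum signal wells for full effect; inactives centre near -20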
Mtb growth: M. tuberculosis H37Rv growth inhibitors, H37Rv strain (AID 1626). M. tuberculosis H37Rv growth inhibition; higher % means a stronger effect. inhibition, % at 10 µM; hits with a dose series show IC50 in µM. 220,000 tested, 0.95% active;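 active = confirmed in a dose series; inconclusive = inhibition above 80% but not taken into the dose series; inactive = below 80% or under 30% at every dose of the series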;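 note: bacteria incubated seven days before Alamar blue readout; 0% = bacteria only wells and 100% = bacteria with antibiotic wells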
Mtb betalactam: beta-lactam sensitization of Mtb H37Rv; M. tuberculosis H37Rv growth with meropenem, percent inhibition; hits of this screen are not shown here; inhibition, % at 25 µM; 330,000 tested, 0.27% active; AID 434955;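 active = about 74% or more and at least 40 points above the plate without the antibiotic, then above 30% in a dose series; inconclusive = first-round hits that could not be retested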;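 note: growth measured after seven days incubation then overnight dye step; 0% = bacteria only wells and 100% = bacteria with antibiotic; twin plates without the antibiotic show which effects depend on it; some results filed as inactive read as strong as hits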
RecA intein inh: inhibitors of M. tuberculosis RecA intein splicing | 290,000 tested, 0.75% active | P9WHJ3 | inhibition, %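 (about 9 µM by stock and volumes)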 | cell-free RecA intein splicing, fluorescence; in the data active = inhibition above about 30%; inconclusive = no clear call, values can overlap the other calls;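 note: 0% = vehicle wells and 100% = reference inhibitor control wells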
Target sequence (P9WHJ3 whole entry, looked up): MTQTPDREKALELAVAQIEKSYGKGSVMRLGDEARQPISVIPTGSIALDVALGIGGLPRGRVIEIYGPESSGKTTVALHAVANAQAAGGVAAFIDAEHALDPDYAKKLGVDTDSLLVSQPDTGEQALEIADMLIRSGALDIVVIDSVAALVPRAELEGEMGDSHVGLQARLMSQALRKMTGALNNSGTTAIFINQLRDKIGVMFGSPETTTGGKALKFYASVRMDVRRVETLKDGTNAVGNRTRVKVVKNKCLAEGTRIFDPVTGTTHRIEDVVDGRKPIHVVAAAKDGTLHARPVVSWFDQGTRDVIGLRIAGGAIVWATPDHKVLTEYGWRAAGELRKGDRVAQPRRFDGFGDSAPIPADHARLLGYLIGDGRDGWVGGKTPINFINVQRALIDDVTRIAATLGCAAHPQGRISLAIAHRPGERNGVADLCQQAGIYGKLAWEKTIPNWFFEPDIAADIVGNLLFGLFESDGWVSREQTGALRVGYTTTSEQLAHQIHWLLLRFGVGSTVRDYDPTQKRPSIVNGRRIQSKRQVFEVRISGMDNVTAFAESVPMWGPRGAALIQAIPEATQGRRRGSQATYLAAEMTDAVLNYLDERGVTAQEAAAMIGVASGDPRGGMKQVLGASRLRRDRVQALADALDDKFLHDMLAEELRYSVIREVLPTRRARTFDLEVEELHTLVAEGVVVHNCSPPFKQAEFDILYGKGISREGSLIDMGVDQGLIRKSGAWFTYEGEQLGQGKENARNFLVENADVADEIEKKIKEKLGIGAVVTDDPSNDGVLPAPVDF
Arbovirus anti: antivirals against arbovirus infection; 200,000 tested, 0.37% active; inhibition, % at 10 µM; arbovirus infection cell-based antiviral screen;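 active = inhibition from about 30%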;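 note: bluetongue infection of BSR cells; cell survival read as ATP light after 72 h; 0% = infected wells without compound and 100% = uninfected wells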
An asterisk follows results filed as active; ? = inconclusive; · = no result given; & = joins results of further samples. Not all compounds are listed (hit frequency here may not be typical).

SMILES	YopH PTP inh	Mtb growth	Mtb betalactam	RecA intein inh	Arbovirus anti
CCOC(=O)CCCNC(=O)COC(=O)c1ccc(O)cc1	-8	8%	-1	·	8
O=C(Nc1ccc(F)cc1)c1sc(Cl)nc1-c1ccccc1	-23	-4%	7	0.6	3
Cc1ccc(C)c(NS(=O)(=O)c2ccc(NC(=O)c3ccco3)cc2)c1	-14	-2%	-3	-0.2	-3
C=CCn1c(SCc2ccccc2)nnc1-c1cccnc1	-8	-2%	-11	-1.1	7
CC(=O)Nc1ccc(NC(=O)c2ccccc2F)cc1	-26	-12%	-5	-0.1	-1
O=C(Nc1ccc2c(c1)OCO2)c1cc2nc(C3CC3)cc(C(F)(F)F)n2n1	-29	-4%	·	8.8	5
O=C(Nc1cc2c3c(c1)CC(=O)N3CCC2)c1ccccc1Br	·	·	-1	14	·
O=C(c1ccco1)N1CCN(Cc2ccc(Br)cc2)CC1	·	·	6	-1.9	·
CCSc1c([N+](=O)[O-])c(=O)n(-c2ccccc2)c2ccccc12	·	·	70	40*	·
Cc1cccnc1NC(=S)Nc1ccc(F)cc1F	·	47%	8	·	-4
Cc1occc1C(=O)N/N=C/c1ccc(-c2cccc([N+](=O)[O-])c2)o1	·	·	-15	0.7	·
O=C(O)CCCN1C(=O)C2C3c4ccccc4C(c4ccccc43)[C@@H]2C1=O (stereo partly specified)	·	·	5	-0.9	·
Cc1cc(=O)[nH]c(Nc2ccc(C(=O)OC(C)C)cc2)n1	-23	8%	-6	·	3
CN1CCN(C(=O)C2=C[C@H](c3ccc4c(c3)OCO4)C[C@H](OCCCCO)O2)CC1	·	-8%	-5	-0.1	·
Cc1ccc(-c2nnn(CC(=O)N(c3ccccc3F)C(CC(C)C)C(=O)NCC3CCCO3)n2)cc1 (stereo unspecified)	-33	-5%	-11	-4.2	-2
O=C(NCCC(c1ccccc1)c1ccccc1)c1cccs1	-11	5%	4	10	-1
Cc1ccc(Nc2nc(N)nc(CC#N)n2)cc1	8	2%	·	1.7	-3
CN(C(=O)c1ccc(OC2CCN(S(=O)(=O)N(C)C)CC2)cc1)C1CCCCC1	·	-3%	20	-3.1	-6
COc1ccc(NCc2nnc(SCC(=O)c3ccc(OC)cc3)n2C)cc1	-5	66%	96	0.8	-15
O=C(CCn1cnc(-c2ccccc2)c1-c1ccccc1)N/N=C/c1ccccc1O	-29	-2%	4	27	-48
CCO[C@@H]1OC(C(=O)O)=C[C@H](c2ccccc2)[C@H]1CCCO	·	-8%	1	-0.6	·
COc1ccc(CCC(=O)N2CCN(c3ccc([N+](=O)[O-])cc3)CC2)cc1OC	·	·	2	1.9	·
O=C1CSC(c2cccc([N+](=O)[O-])c2)N1c1ccc(O)cc1 (stereo unspecified)	·	0%	-7	-3.5	5
O=C(NC1CCC(O)CC1)c1ccc(S(=O)(=O)NCc2ccco2)cc1 (stereo unspecified)	7	-1%	-5	-1.7	5
O=C(NCc1ccco1)/C(=C/c1ccco1)NC(=O)c1ccccc1	·	·	-9	-1.3	·
COC(=O)c1nn(-c2cccc(Cl)c2)cc(OC)c1=O	·	·	-4	-5.0	·
Cc1cc(C)cc(NC(=S)NC2CC3CCCC(C2)N3Cc2cccs2)c1 (stereo unspecified)	-51	3%	9	2.3	-20
CC(C)c1ccc(NC(=O)CSc2nc3ccsc3c(=O)n2Cc2ccc(C(=O)O)cc2)cc1	·	·	11	7.7	·
Cc1cc(F)c(F)c(C(=O)N2CCOCC2)c1	-5	-1%	-6	-2.2	2
O=C(CN1C(=O)C2(OCCCO2)c2ccccc21)NCc1ccccc1	-38	-5%	-19	1.0	0
CCN(CC)c1ccc(/C=N/NC(=O)C2CC2)cc1	·	·	-6	-2.0	·
O=C1OC(Nc2ccc(Cl)cn2)c2ccccc21 (stereo unspecified)	-17	3%	-3	-3.9	-1
O=C(COC(=O)C1=Cc2ccccc2OC1)NC1CCCC1	-45	-21%	0	1.3	2
Cc1ccc(CN2C(=O)C(Cc3ccccc3)Nc3ncnc(N4CCCCC4)c32)cc1 (stereo unspecified)	·	·	-7	11	·
O=C(NCC(=O)N1CCOCC1)c1ccccc1	·	·	-5	-2.0	·
COc1cc(C2C(C#N)=C(N)Oc3cc(N)ccc32)cc(OC)c1OC (stereo unspecified)	-35	-5%	-6	·	-14
O=C(CN(C1CCCCC1)C1CCCCC1)N1CCc2ccccc2C1	-4	17%	4	7.2	-17
O=C(c1cc(F)ccc1F)C1CCCN(C(=O)c2ccc3nccnc3c2)C1 (stereo unspecified)	·	·	-10	-2.1	·
Cc1sc2ncnc(N/N=C/c3ccc(O)cc3)c2c1C	-22	9%	9	-1.2	-8
CC(C)(C)C(=O)COC(=O)c1cc2ccccc2cc1O	-5	2.7µM*	99	-2.7	2
COc1ccc(-c2cc(C(F)(F)F)nc(-n3cncn3)n2)cc1	-23	-1%	-1	0.8	5
COc1cc(NC(=O)CSc2nnc(NC(C)C)s2)cc(OC)c1OC	·	0%	0	0.9	8
Cc1ccc2c(c1)nnn2C1CCN(CC(=O)Nc2ccc(F)cc2)CC1	·	-4%	-7	2.6	·
Cc1cn(Cc2ccccc2Cn2cc(C)c(=O)[nH]c2=O)c(=O)[nH]c1=O	·	3%	-7	0.5	·
CCOC(=O)C1(Cc2ccccc2)C(=O)N(CCCN(C)C)c2ccccc21 (stereo unspecified)	·	·	-7	-1.0	·
CCCC1C2C(=O)N(c3ccccc3OCC)C(=O)C2ON1c1ccccc1 (stereo unspecified)	13	-13%	3	0.8	-5
Cc1ccc(C)c(NC(=O)CN(C)C(=O)CCN2C(=O)c3ccccc3C2=O)c1	1	-2%	0	0.6	-3
O=CN1CCN(c2ncnc3c2nnn3Cc2c(F)cccc2Cl)CC1	·	-3%	2	-0.4	8

Reprinted at random: two compounds from above, in no set order.
SMILES	YopH PTP inh	Mtb growth	Mtb betalactam	RecA intein inh	Arbovirus anti
Cc1cn(Cc2ccccc2Cn2cc(C)c(=O)[nH]c2=O)c(=O)[nH]c1=O	·	3%	-7	0.5	·
Cc1sc2ncnc(N/N=C/c3ccc(O)cc3)c2c1C	-22	9%	9	-1.2	-8

The list continues.
SMILES	YopH PTP inh	Mtb growth	Mtb betalactam	RecA intein inh	Arbovirus anti
CC(/C=C1\NC(=S)NC1=O)=C\c1ccccc1	·	3%	6	4.2	·
O=C1CC(N2CCN(c3nc4ccccc4s3)CC2)C(=O)N1c1cccc(F)c1 (stereo unspecified)	-27	-9%	-1	3.5	7
O=S(=O)(NCc1ccccn1)c1cc(C(F)(F)F)ccc1Cl	·	-8%	-8	-0.5	-2
Cc1noc(C)c1COC(=O)Cc1ccc(Br)cc1	·	0%	-2	1.1	5
COc1ccc(NC(=O)Cn2c(C)cc(=O)c3cccc(OC)c32)cc1	·	-10%	1	1.2	·
CC(=O)Nc1cc(C(=O)NCCN2CCN(Cc3ccccc3)CC2)ccc1Sc1ccc(C)cc1	·	1%	2	0.8	-13
O=C(/C=C/c1ccc([N+](=O)[O-])cc1)NCCN1C(=O)S/C(=C\c2ccc(F)cc2)C1=O	·	5%	-17	-0.9	-3
COc1ccc(NC(=O)N2CCC3(CC2)OCCO3)cc1OC	-32	-5%	-1	-1.9	2
CCCCCCn1c(=O)c(C(=O)Nc2nc(CC(=O)OCC)cs2)c(O)c2ccccc21	·	<0.2µM*	99	1.0	·
Cc1cc(C)n(CC(=O)NC2CCCCC2C)c(=O)c1C#N (stereo unspecified)	·	·	-5	5.2	·
COc1cccc(C(=O)NNC(=O)Cc2csc(N)n2)c1	·	5%	2	2.7	-3
N#Cc1c(NC(=S)NC(=O)Cc2cccs2)sc2c1CCCCC2	-36	·	13	-0.2	3
COc1ccc(C(=O)Cn2nnc(-c3ccccc3NC(=O)C3CCCCC3)n2)cc1	-13	-7%	-3	-2.2	3
Cc1ccc(C)c(N(CC(=O)NC2CCCC2)C(=O)c2oc(C(C)(C)C)cc2C)c1	13	11%	11	12	-30
O=C(NCc1ccccn1)c1n[nH]c2ccccc12	-39	-10%	-1	-2.1	4
O=C(CCNC(=O)c1ccccc1)N/N=C/c1ccc([N+](=O)[O-])cc1	·	5%	-3	-3.0	6
O=C(O)CC(C(=O)O)n1nc(-c2ccccc2)cc1-c1ccccc1 (stereo unspecified)	-48	-3%	-2	-1.4	-19
COc1ccc(NC2CCCN(C(=O)c3ccccc3C(F)(F)F)C2)cc1 (stereo unspecified)	·	·	-6	-0.8	·
O=C(C1CCC(CNc2c(N3CCCCC3)c(=O)c2=O)CC1)N1CCN(c2ccccn2)CC1 (stereo unspecified)	·	·	-2	3.7	7
CCOc1ccc(/C(C)=N/NC(=O)C(OC)c2ccccc2)cc1 (stereo unspecified)	·	2%	1	-0.9	-20
O=C(O)CC1S/C(=N/N=C/C=C/c2ccccc2)NC1=O (stereo unspecified)	-15&-17	5%&5%	7&0	-0.8&-28	2&3
CCOc1ccc(N(CC(=O)N2CCCCC2)S(=O)(=O)c2ccc(Cl)cc2)cc1	·	·	7	6.9	·
CC(=O)NCCc1nc2ccccc2n1Cc1ccc(C)cc1	-44	6%	-8	1.0	3
O=C1CC(N2CCN(Cc3ccc4c(c3)OCO4)CC2)C(=O)N1c1cccc2ccccc12 (stereo unspecified)	·	-8%	-4	-0.3	9
CC(C)c1ccc(NC(=O)C2CC2c2ccccc2)cc1 (stereo unspecified)	·	·	-3	-0.4	·
CC(C)Nc1cc(N2CCCC2)ccc1[N+](=O)[O-]	-32	3%	3	-2.2	10
O=C1Nc2ccccc2S/C1=C/c1cccs1	·	3%	-10	-11	·
N#CCCc1cccc(CCC#N)c1	·	·	-14	-0.4	·
O=C(NC1CCCCC1)c1cc2nc3c(c(C(F)(F)F)n2n1)CCCC3	-1	65%	97	0.4	17
COc1ccc(CNS(=O)(=O)c2ccc(-c3ccc(=O)[nH]n3)s2)cc1OC	·	·	-8	-0.6	·
COc1ccccc1NC(=O)c1ccc(Cl)c(S(=O)(=O)N2CCOCC2)c1	-54	4%	-7	0.8	-7
CCOc1ccccc1N(CC(=O)OC)S(=O)(=O)c1ccccc1	-37	1%	?	0.7	-3
Cc1cnc(=O)[nH]c1SCc1ccc(C(F)(F)F)cc1	·	·	2	-1.4	·
CCCOc1ccc(C(=O)NC(=S)Nc2nc(C)c(C(=O)N(C)C)s2)cc1	-29	-13%	6	4.8	-8
COc1ccccc1CNC(=O)c1ccccc1N	6	-7%	7	-0.6	9
CC(=O)Nc1cc[n+](C(C)C(=O)c2ccc(Br)cc2)cc1 (stereo unspecified)	·	2%	-1	2.7	-1

Six consecutive compounds out of the list so far, for reference:
SMILES	YopH PTP inh	Mtb growth	Mtb betalactam	RecA intein inh	Arbovirus anti
COc1ccc(C(=O)Cn2nnc(-c3ccccc3NC(=O)C3CCCCC3)n2)cc1	-13	-7%	-3	-2.2	3
Cc1ccc(C)c(N(CC(=O)NC2CCCC2)C(=O)c2oc(C(C)(C)C)cc2C)c1	13	11%	11	12	-30
O=C(NCc1ccccn1)c1n[nH]c2ccccc12	-39	-10%	-1	-2.1	4
O=C(CCNC(=O)c1ccccc1)N/N=C/c1ccc([N+](=O)[O-])cc1	·	5%	-3	-3.0	6
O=C(O)CC(C(=O)O)n1nc(-c2ccccc2)cc1-c1ccccc1 (stereo unspecified)	-48	-3%	-2	-1.4	-19
COc1ccc(NC2CCCN(C(=O)c3ccccc3C(F)(F)F)C2)cc1 (stereo unspecified)	·	·	-6	-0.8	·

The list goes on:
SMILES	YopH PTP inh	Mtb growth	Mtb betalactam	RecA intein inh	Arbovirus anti
COC(=O)c1ccc(-c2nc(CN3CCC(C(=O)N4CCOCC4)CC3)c(C)o2)cc1	·	·	?	-0.8	·
COc1ccc(OC)c(CCNC(=O)CC2Oc3ccc(C)cc3NC2=O)c1 (stereo unspecified)	-24	6%	·	·	7
O=C(Cc1c[nH]c2ccccc12)NCc1ccncc1	·	·	3	-1.3	·
Cc1cccc(C)c1NC(=O)CS(=O)CC(=O)Nc1ccc(F)cc1F (stereo unspecified)	-9	-3%	9	0.5	-1
COc1ccc(CN2CCC(C(=O)N3CCN(c4ccccc4F)CC3)CC2)cc1OC	-14	-9%	-4	-2.3	3
CCn1ccnc1CNC(=O)CC1C(=O)NCCN1CC(c1ccccc1)c1ccccc1 (stereo unspecified)	·	5%	-6	3.6	-1
CC(C)(C)C1CCC2(CC1)C(Nc1cccc(C(F)(F)F)c1)=NC(=S)N2CC#N (stereo unspecified)	-26	-6%	5	7.6	4
Cc1ccc(S(=O)(=O)c2c(C(=O)c3ccccc3)cnc3cc4c(cc23)OCCO4)cc1	-21	8%	-3	-6.2	11
O=C(CN1CCN(C(=O)C2CCCO2)CC1)Nc1ccc(Cl)c(Cl)c1 (stereo unspecified)	·	·	-19	-0.7	·
COc1cc(/C=N/Nc2ncnc3sc4c(c23)CCC4)ccc1O	-6	4%	·	·	3
COc1ccc(N(C(=O)c2cc3ccccc3oc2=O)C2C=CS(=O)(=O)C2)c(OC)c1 (stereo unspecified)	·	3%	-6	-7.0	18
COc1cccc(NC(=S)NCc2ccncc2)c1	-11	-5%	4	-2.8	6
